Lassa entry inh: qHTS for Inhibitors of binding or entry into cells for Lassa Virus; 300,000 compounds, 1.2% hits; Potency, µM (top dose mostly 37.9 µM), without a hit: at the top dose activity change, negative = inhibition, hits mostly inhibitors; Lassa virus pseudotype entry inhibition, cell reporter; control for the full effect not named in the record; active means well fitted inhibition curve with a large enough effect; inconclusive means small, poorly fitted or top-dose-only effect, or effect the other way; inactive means flat fitted curve, though single readings scatter; tested in HEK293 cells; also: % is scaled to controls: 0 for no effect and ±100 for the full control effect; nearly all actives have a fitted effect of over 50% in size; luciferase read-out
Marburg entry inh: qHTS for inhibitors of binding or entry into cells for Marburg Virus | Potency, µM (highest dose often 37.8 µM), for the others: top-dose activity change, negative = inhibition, most hits filed as inhibitors | 300,000 compounds, 1.8% hits | Marburg virus pseudotyped entry inhibition, cell reporter; control for the full effect not named in the record; about a third of the inactives were read at about 46 µM; active = well fitted inhibition curve with a large enough effect; inconclusive = small, poorly fitted or top-dose-only effect, or effect the other way; inactive = flat fitted curve, though single readings scatter; tested in HEK293 cells; about a fifth of its hits are not listed in these tables; also: % is scaled to controls: 0 for no effect and ±100 for the full control effect; luciferase read-out
Cruzain inh noDet: qHTS Assay for Promiscuous and Specific Inhibitors of Cruzain (without detergent); purified cruzain, Z-FR-AMC fluorescence, no detergent; Potency, µM, without a hit: max response, negative = inhibition, hits mostly inhibitors; 200,000 compounds, 2.3% hits; AID 1476, 2009;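 also: plate controls were enzyme without inhibitor for no effect and buffer without enzyme for full effect; nearly all actives have a fitted effect of over 40% in size; top concentration of the series not given in the record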
Target sequence (P25779 123-467 limits assumed): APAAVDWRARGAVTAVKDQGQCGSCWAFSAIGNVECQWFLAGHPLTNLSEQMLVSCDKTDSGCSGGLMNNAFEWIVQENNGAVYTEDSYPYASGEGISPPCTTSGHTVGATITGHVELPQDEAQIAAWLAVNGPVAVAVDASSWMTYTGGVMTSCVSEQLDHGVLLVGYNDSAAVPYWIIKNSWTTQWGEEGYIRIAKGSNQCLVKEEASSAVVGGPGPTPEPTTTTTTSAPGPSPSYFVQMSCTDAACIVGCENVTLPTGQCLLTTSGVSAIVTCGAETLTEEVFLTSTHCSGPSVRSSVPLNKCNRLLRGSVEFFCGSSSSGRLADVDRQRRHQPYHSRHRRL
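Purified cruzain at 1.5 nM, pre-incubated 15 min with compound at room temperature in 100 mM sodium acetate pH 5.5, 5 mM DTT, 0.00005% Triton X-100. Reaction started with 2 uM Z-FR-AMC; AMC fluorescence increase over 60 s gives rate.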
Cruzain inh Det: qHTS Assay for Promiscuous and Specific Inhibitors of Cruzain (with detergent). purified cruzain, Z-FR-AMC fluorescence, 0.01% Triton. 200,000 compounds, 0.43% hits. Cruzipain (Trypanosoma cruzi), P25779. Potency, µM, without a hit: max response, negative = inhibition, usual class: inhibitors;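 also: plate controls were neutral wells for no effect and buffer without enzyme for full effect; nearly all actives have a fitted effect of over 40% in size; top concentration of the series not given in the record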
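Z-FR-AMC hydrolysis (2 uM substrate) by cruzain (1.5 nM) monitored kinetically at ex 360/em 450 nm after 15 min room-temperature compound exposure; 0.01% Triton X-100, pH 5.5, 5 mM DTT.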
2A StopGo: High Throughput Screening for Foot and Mouth Disease Virus Antivirals | AID 1159524, 2015 | 410,000 compounds, 1.2% hits | human cells with a luciferase reporter of 2A StopGo recoding; control for the full effect not named in the record | Potency, µM (top dose mostly 57.9 µM), for inactives: top-dose signal change, negative = less light; active = well fitted falling curve with a large enough effect; inconclusive = small, poorly fitted or top-dose-only effect; inactive = no such curve, though single readings can be large or run the other way; tested in HEK293T cells; also: % is scaled to controls: 0 for no effect and ±100 for the full control effect; nearly all actives have a fitted effect of over 45% in size; luciferase light after 4 h
RE007 growth inh: qHTS Assay for Inhibitors of the HIV-1 protein Vpr. AID 651644, 2012. S. pombe RE007 Vpr strain, BacTiter-Glo ATP luminescence, 24 h; control for the full effect not named in the record. Potency, µM (series often up to 92.2 µM), inactives show top-dose activity change, negative = less growth. 360,000 compounds, 0.21% hits; active = well fitted falling curve with a large enough effect; inconclusive = small, poorly fitted or top-dose-only effect; inactive = no such curve, though single readings can be large or run the other way;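 also: % is scaled to controls: 0 for no effect and ±100 for the full control effect; nearly all actives have a fitted effect of over 50% in size; the assay follows cell death caused by Vpr and the record does not say whether a fall means rescue or toxicity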
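Fission yeast strain RE007, carrying one chromosomally integrated HIV-1 vpr copy, was seeded at OD 0.01 in PMG+AL medium with 23 nL pinned compound. After 24 h at 30 °C and 99% humidity, viability was read by BacTiter-Glo luminescence.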
SARS PLpro yeast: qHTS of Yeast-based Assay for SARS-CoV PLP; S. cerevisiae expressing SARS-CoV PLpro, growth rescue; control for the full effect not named in the record; Potency, µM (highest dose often 32.9 µM), for the others: at the top dose activity, positive = growth rescue; 330,000 compounds, 0.19% hits; active means well fitted rising curve with a large enough effect; inconclusive means small, poorly fitted or top-dose-only effect; inactive means no such curve, though single readings can be large or run the other way; also: 0% is about no effect; nearly all actives have a fitted effect of over 55% in size; growth read by luminescence after 48 h
NS1 inh: qHTS Assay for Inhibitors of Influenza NS1 Protein Function. S. cerevisiae slowed by influenza A NS1, growth recovery by OD600. Potency, µM (highest dose often 46.1 µM), for the others: top-dose activity, positive = more growth. 270,000 compounds, 0.4% hits. AID 2326, 2010; active means well fitted rising curve with a large enough effect; inconclusive means small, poorly fitted or top-dose-only effect; inactive means no such curve, though single readings can be large or run the other way; also: nearly all actives have a fitted effect of over 50% in size
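Compounds were scored for reversing the slow growth caused by influenza A NS1 in S. cerevisiae, measured by optical density at 600 nm. Assay medium contained 2% galactose at pH 6.0; NS1-free yeast of the same strain were the positive control.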
Starred values were filed as active, the others as inactive; u = inconclusive; x = not tested or not shown; & = joins results of further samples; [ ] = another dose, or the depositor's remark. Unless noted, calls follow the shape of the dose curve; as a rule, active = well fitted curve in the direction sought with a large enough effect; inconclusive = small, poorly fitted or top-dose-only effect, or another doubt; inactive = no such curve, though single readings can be large; an effect the other way counts as inactive or inconclusive. Potency is read from the fitted curve at half-maximal effect.

Values run as follows: Lassa entry inh | Marburg entry inh | Cruzain inh noDet | Cruzain inh Det | 2A StopGo | RE007 growth inh | SARS PLpro yeast | NS1 inh
Cc1ccccc1OCCSc1nc(N(C)C)nc(N(C)C)n1
→ 17% | u | -1% | -5.0% | -12% | 5% | -18% | -9%
Cc1ccc(OCC(=O)Nc2ccc3nc(SCC(=O)N4CCOCC4)sc3c2)cc1
→ u | -16%[46.1 µM] | -5% | -1.9% | u | x | x | x
O=C1CNCc2[nH]c3ccccc3c2N1c1ccccc1
→ u | u | -23% | -3.4% | -17% | -16% | 4% | -2%
Cc1cc(C)cc(NC(=O)c2cccc(NC3=NC4CS(=O)(=O)CC4S3)c2)c1 (stereo not drawn)
→ x | x | x | x | -3% | 5% | 0% | 9%
Cn1cc(Cl)c(-c2n[nH]c(=S)n2C2CCCCC2)n1
→ -9% | 17%[46.1 µM] | x | x | 5% | 22% | -4% | x
CCOC(=O)c1sc(NC(=O)CN2C(=O)c3cccc4cccc(c34)C2=O)nc1C
→ -9% | 19% | 6% | -1.3% | x | -8% | -6% | 9%
O=C(CSc1nccn1-c1ccc(F)cc1)Nc1cccc2ccccc12
→ -20%[46.1 µM] | x | -3% | -7.1% | -1% | x | x | x
CS(=O)(=O)N(CC(=O)N1CCCC1)c1cccc(F)c1
→ 5% | u | x | x | 1% | -1% | 2% | 4%
Cc1cccnc1NC(=O)CSc1nnc(COc2ccc(C(C)C)cc2)n1C
→ 11% | 6% | -20% | -0.6% | 20% | 1% | -33% | -4%
Cc1ccc(NC(=O)C2CCCN(c3ncccn3)C2)c(C)c1 (stereo not drawn)
→ -25%[46.1 µM] | u | x | x | 46%[activator] | u | 0% | 2%
O=C(O)CSCc1c(F)cccc1Cl
→ 1% | 19% | -5% | 2.3% | -13% | -3% | -21% | 10%
COc1ccc(CCN2CCCn3c2nc2c3c(=O)n(Cc3ccccc3F)c(=O)n2C)cc1OC
→ u | 8%&8% | u | -0.5% | u | -1% | -2% | -7%
CCc1cc2c(-n3nc(C)cc3C)ncnc2s1
→ 7% | -3% | 9% | -3.6% | 11% | -13% | -4% | 4%
COc1ccccc1/C=C/C=N/n1c(COc2ccccc2)n[nH]c1=S
→ u | 2% | -26% | -3.9% | 9% | 19% | 3% | 10%
CC(C)C(=O)Nc1ccc(C(=O)NNC(=O)C(c2ccccc2)c2ccccc2)cc1
→ -19% | u | u | 5.7% | -23% | -8% | 8% | 15%
COc1ccc(CCNC(=O)C2CCN(S(=O)(=O)c3ccc4nc5c(c(C(=O)O)c4c3)CCCC5)CC2)cc1OC
→ x | x | x | x | -19% | -5% | -2% | 3%
O=C(NC(=S)Nc1cccc(NC(=O)c2ccccc2Cl)c1)c1cccs1
→ -7% | -2% | -74% | -13% | 23% | -25% | 1% | 11%
CCc1ccc(C(=O)NNC(=O)c2cccc(N3C(=O)CCC3=O)c2)cc1
→ -11% | u | x | x | -13% | -1% | -2% | x
O=C(COc1ccc(Cl)cc1Cl)NNC(=S)NC(=O)c1ccco1
→ 5% | u | x | x | -5% | -16% | -3% | -33%
Oc1c(C(c2ccc(F)cc2)N2CCCC2)sc2nc(-c3ccco3)nn12 (stereo not drawn)
→ u | x | -10% | -2.9% | 28% | x | x | x
Cc1nn(CC(=O)NCc2ccc(N(C)C)cc2)c(=O)c2c(C)n(-c3ccc(Cl)cc3)nc12
→ -20%[46.1 µM] | x | -14% | 2.2% | u | x | x | x
O=C(Cc1ccc(-c2ccccc2)cc1)NCc1cccnc1
→ u | u | x | x | -16% | -2% | 1% | -2%
Cc1ccc2[nH]nc(C(=O)N3CCCC(C(=O)c4ccc(Cl)cc4)C3)c2c1 (stereo not drawn)
→ u | -22%[46.1 µM] | x | x | -25% | 6% | -1% | -3%
CCCCn1c(N)c(N(CC(C)C)C(=O)CCCc2nc3ccccc3s2)c(=O)[nH]c1=O
→ -4% | 2% | x | x | -19% | 2% | 0% | x
CCn1c(N)c(C(=O)NCc2cccnc2)sc1=S
→ 8% | 7% | -14% | -0.7% | -6% | 3% | 2% | -1%
CCc1ccc2c(c1)C(c1ccc([N+](=O)[O-])cc1)=NNC(c1ccc(F)cc1)=N2
→ 10% | u | u | -0.3% | 54%[activator] | 6% | -6% | 10%
CC(C)=CCC/C(C)=C/CNC(=O)C[C@H]1C[C@H](C(=O)N2CCOCC2)[C@@]2(CCC3CCCC3)c3[nH]c4cc(-c5ccco5)ccc4c3CCN2C1=O
→ x | -5% | x | x | -13% | 4% | -18% | x
COc1ccc(OCC(O)CNC(=O)c2ccc(OC)cc2)cc1 (stereo not drawn)
→ u | u | x | x | -28% | 4% | -1% | -1%
C=CCNC(=S)Nc1ccc(Br)cc1F
→ -6% | -10% | 1% | -0.6% | 40%[activator] | -13% | u | -3%
CC1CCC2(CC1)NC(=O)N(CC(=O)N1CCN(S(=O)(=O)c3ccc4c(c3)CCC4)CC1)C2=O (stereo not drawn)
→ 5% | 0% | x | x | -19% | -7% | -1% | x
COc1ccc(C(O)c2nccn2Cc2ccccc2)cc1 (stereo not drawn)
→ 18% | -5% | 0% | 8.8% | 8% | -5% | 4% | -7%
CS(=O)(=O)N1CCN(c2ccc(NC(=O)c3cc4ccccc4o3)cc2)CC1
→ x | x | x | x | 0% | 15% | 1% | 8%
Cc1ccc(/C(N)=N/OC(=O)c2cccs2)cc1
→ u | u | -14% | -2.1% | -20% | u | -84% | -62%
COc1cc(NC(=O)c2cccc3c2C(=O)N(Cc2cccnc2)C3)cc(OC)c1OC
→ -9% | -8%&-8% | u | -2.8% | -23% | 8% | -7% | -52%
CCOC(=O)[C@@H]1[C@H]2COc3ccccc3[C@H]2N2C(=O)N(c3ccc(F)cc3)C(=O)[C@]12C
→ x | x | x | x | 0% | 6% | -7% | 10%
S=c1[nH]nc(-c2ccco2)n1/N=C/C(Cl)=C/c1ccccc1
→ u | u | x | x | 7% | -9% | -2% | -4%
CCC(NC(=O)CCCc1ccccc1)c1ccccc1 (stereo not drawn)
→ -1% | 4% | -16% | -2.0% | 2% | x | 8% | -7%
COc1ccc(OC)c(NC(=O)CN2C(=O)CCc3cc(S(=O)(=O)N4CCCCC4)ccc32)c1
→ u | x | u | -5.0% | -6% | x | x | x
Cc1cc(C(=O)C(=O)NC(C)C)c(C)n1-c1ccc([N+](=O)[O-])cc1
→ 5% | 2% | 3% | 4.3% | -24% | -1% | 3% | 0%
CCOC(=O)c1ccc2ncc(C(=O)OCC)c(Nc3ccc(C)c(Br)c3)c2c1
→ u | -3%[46.1 µM] | 7% | -3.9% | u | x | x | x
COc1cccc(-c2ccc(SCC(=O)N3CCN(c4ccccc4)CC3)nn2)c1
→ u | 20%[46.1 µM] | x | x | 13µM* | -10% | 0% | x
CCN1C(=O)/C(=C\c2cccs2)C(C(=O)OC)=C1C
→ 5% | -7% | -11% | -2.9% | -12% | -19% | -6% | -9%
Cc1ccc(NC(=O)NCCN2CCN(c3ccccc3)CC2)cc1Cl
→ x | x | x | x | u | 9% | 0% | -3%
Cc1ccc(S(=O)(=O)N(CC(=O)N(C(C)C)C(C)C)C(=O)N2CCN(C)CC2)cc1
→ x | x | x | x | 13% | 3% | 0% | -1%
COc1ccc(C(C(=O)NC2CCCCC2)N(C(=O)c2sc(C)nc2C)c2ccccc2C)cc1 (stereo not drawn)
→ -16% | u | u | 0.4% | -15% | 8% | -4% | -25%

3 consecutive records already listed:
Values run as follows: Lassa entry inh | Marburg entry inh | Cruzain inh noDet | Cruzain inh Det | 2A StopGo | RE007 growth inh | SARS PLpro yeast | NS1 inh
COc1ccc(C(O)c2nccn2Cc2ccccc2)cc1 (stereo not drawn)
→ 18% | -5% | 0% | 8.8% | 8% | -5% | 4% | -7%
CS(=O)(=O)N1CCN(c2ccc(NC(=O)c3cc4ccccc4o3)cc2)CC1
→ x | x | x | x | 0% | 15% | 1% | 8%
Cc1ccc(/C(N)=N/OC(=O)c2cccs2)cc1
→ u | u | -14% | -2.1% | -20% | u | -84% | -62%

(further entries)
Values run as follows: Lassa entry inh | Marburg entry inh | Cruzain inh noDet | Cruzain inh Det | 2A StopGo | RE007 growth inh | SARS PLpro yeast | NS1 inh
CCCNC(=O)COC(=O)c1ccc(N2CCCC2)c([N+](=O)[O-])c1
→ 3% | 5%[46.1 µM] | x | x | -17% | 10% | 1% | x
Cc1ccc(CS(=O)(=O)c2ncn[nH]2)cc1
→ -8%[46.1 µM] | 20%[46.1 µM] | x | x | -1% | -13% | 1% | 3%
CN(C)c1ccc(C(=O)OCc2cc(=O)n3ccsc3n2)cc1
→ u | u | x | x | 31%[activator] | -7% | -2% | x
CCc1ccc(-n2c(=O)c3c(C)c(C(=O)N(C)C)sc3n(CC(=O)NCC3CCCO3)c2=O)cc1 (stereo not drawn)
→ x | -16%[46.1 µM] | x | x | -7% | 6% | 2% | 1%
CCOC(=O)c1ccc(NC(=O)c2ccc3c(c2)OCO3)cc1
→ u | u | 17% | 1.3% | 12% | 5% | -6% | 8%
Cc1ccc(C)c(-c2csc(-c3c(N)c(C(=O)c4ccc5c(c4)OCO5)n4ccccc34)n2)c1
→ -4%[46.1 µM] | u | 3.2µM* | -2.7% | -13% | x | x | x

Part of the list above, with tabs:
Compound	Lassa entry inh	Marburg entry inh	Cruzain inh noDet	Cruzain inh Det	2A StopGo	RE007 growth inh	SARS PLpro yeast	NS1 inh
Cc1ccc(C)c(-c2csc(-c3c(N)c(C(=O)c4ccc5c(c4)OCO5)n4ccccc34)n2)c1	-4%[46.1 µM]	u	3.2µM*	-2.7%	-13%	x	x	x
CN(C)c1ccc(C(=O)OCc2cc(=O)n3ccsc3n2)cc1	u	u	x	x	31%[activator]	-7%	-2%	x
